Screens from PubChem BioAssay.
RGS16-Gao – regulators of human RGS16-Galphao interaction | O15492+P09471 | bead-based flow cytometry RGS16-Galphao binding, fluorescence; actives lie on both sides | binding response (% of control), % at 10 µM | actives 0.38% (n = 220,000) | AID 1441;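 active means below 25% or above 175%, edge rows of some plates excepted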;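 further: Galphao activated by GDP with aluminum fluoride before binding; 100% = wells without compound and 0% = beads without RGS; some results beyond the cut were filed as inactive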
Target sequence (O15492 whole entry, looked up): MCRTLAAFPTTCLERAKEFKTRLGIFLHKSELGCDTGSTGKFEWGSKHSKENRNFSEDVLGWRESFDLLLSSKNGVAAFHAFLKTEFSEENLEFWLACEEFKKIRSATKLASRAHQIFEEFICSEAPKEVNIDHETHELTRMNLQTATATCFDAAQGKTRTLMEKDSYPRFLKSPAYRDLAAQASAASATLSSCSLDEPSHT
Target sequence (P09471 whole entry, looked up): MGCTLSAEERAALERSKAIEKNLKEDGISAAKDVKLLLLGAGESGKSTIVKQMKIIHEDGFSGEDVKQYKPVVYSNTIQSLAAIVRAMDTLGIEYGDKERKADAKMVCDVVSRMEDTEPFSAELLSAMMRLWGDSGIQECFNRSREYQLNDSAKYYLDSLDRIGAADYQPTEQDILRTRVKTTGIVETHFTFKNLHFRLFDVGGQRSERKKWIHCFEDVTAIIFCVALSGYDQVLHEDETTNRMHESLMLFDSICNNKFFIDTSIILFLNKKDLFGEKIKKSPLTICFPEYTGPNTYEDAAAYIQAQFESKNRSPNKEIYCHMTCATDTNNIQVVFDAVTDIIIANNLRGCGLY
PKD1 kinase inh – PKD1 (human) kinase inhibition. Q15139. PKD1 kinase fluorescence polarization assay. inhibition, %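 (about 10 µM by stock and volumes)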. actives 0.056% (n = 200,000);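 active means inhibition of 50% or more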;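 further: controls were vehicle for no effect and a reference inhibitor for full effect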
HSV augment – HSV replication enhancement; maximum fold increase; actives 0.005% (n = 220,000); HSV replication augmentation in cells, fold increase; AID 1956;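 active means peak rise of 1.5-fold or more in the series; inconclusive means self-fluorescent or not available for retest; tested in PC3 cells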;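 further: first round at 10 µM; read as green reporter fluorescence; hits show the peak of a series up to 25 µM; 1 = signal of infected wells without compound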
GALR2 agonist – activates the human galanin receptor 2; O43603; GALR2-expressing cells, agonist activation read-out; activation, %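 (tested at 5 µM)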; actives 0.48% (n = 140,000); AID 803;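 active means above mean plus 3 SD of all compounds, about 5% in these data, not always enough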;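 further: 0% = vehicle buffer wells and 100% = reference agonist at full effect; tested in CHO reporter cells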
Target sequence (O43603 whole entry, looked up): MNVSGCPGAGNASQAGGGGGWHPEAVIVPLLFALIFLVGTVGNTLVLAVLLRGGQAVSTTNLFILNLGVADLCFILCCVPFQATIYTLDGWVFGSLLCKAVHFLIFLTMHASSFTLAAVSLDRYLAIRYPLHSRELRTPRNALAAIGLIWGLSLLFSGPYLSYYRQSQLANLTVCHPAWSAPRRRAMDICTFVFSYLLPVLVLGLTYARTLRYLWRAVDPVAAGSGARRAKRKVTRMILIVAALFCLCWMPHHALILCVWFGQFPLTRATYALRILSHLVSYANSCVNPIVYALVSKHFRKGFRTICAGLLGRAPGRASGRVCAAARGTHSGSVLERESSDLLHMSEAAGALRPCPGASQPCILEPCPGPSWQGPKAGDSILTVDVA
INS promoter inh – TRM-6 insulin promoter activity inhibition. TRM-6 cells (human fetal islet line), insulin promoter-eGFP reporter, imaging; reporter expression induced with tamoxifen. inhibition, % at 2 µM. actives 0.9% (n = 130,000);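 active means inhibition above the mean plus 3 SD, with well images judged a real hit on visual review, cut at about 60% in these data, passing the limit was not always enough; inconclusive means inhibition over the cutoff but images rejected on review; inactive means inhibition not above the cutoff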
INS promoter inh cell count – recorded beside INS promoter inh, whose call it bears; normalized cell count, %; measured here: cell count, toxicity; reference of the scale not given here;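 cells exposed to compound for 48 h; stained nuclei by imaging scaled within each plate; lower means fewer cells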
HSV augment primary fold – second read-out of HSV augment, no call of its own (marks repeat the call); fold increase; compound at 10 µM; measured here: primary screen fold increase 10 uM; tested in PC3 cells;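 GFP signal in the first replicate; 1 = infected wells without compound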
Active calls of the source: *; i = inactive; ? = inconclusive; nt = no result given. Compounds were not picked by outcome (roughly 1.2% active in at least one column).

SMILES	RGS16-Gao	PKD1 kinase inh	HSV augment	HSV augment primary fold	GALR2 agonist	INS promoter inh	INS promoter inh cell count
CCN(CC)C(=O)CSc1nnc(C2CCCCC2)o1	97	-2	i	0.99	-2.1	-40	79
CC(=O)c1ccc(NC(=O)C(C)n2c3ccccc3c3nc(=O)cc(C)n32)cc1 (stereo not given)	104	nt	i	0.67	nt	nt	nt
O=c1[nH]c2ccccc2nc1Cc1ccccc1	105	7	i	0.86	1.2	nt	nt
CN(C)CC/C=C1/c2ccccc2Sc2ccc(Cl)cc21	96	nt	i	0.9	nt	nt	nt
Cc1ccc(NC(=S)Nc2ccc(Cl)c(Cl)c2)c(OC(F)F)c1	78	-8	i	1	-1.5	nt	nt
O=C(NCc1cccnc1)c1cccc2c1C(=O)N(Cc1cccnc1)C2	98	-5	i	0.75	-1.0	nt	nt
Cc1ccc(/C=C/C(=O)OCC(=O)Nc2ccccc2Sc2ccccc2)cc1	108	-7	i	0.98	-1.7	10	70
COc1cc(/C=N/NC(=O)CCN2CCN(c3ccccc3)CC2)cc(OC)c1OC	107	6	i	0.91	-0.1	3	104
O=C(O)CCc1ccc(-c2cccs2)n1Cc1ccco1	99	-3	i	0.8	-1.1	63	109
CCOC(=O)/C=C1\SCC(=O)N1CC(=O)Nc1ccc(C(C)C)cc1	301	-3	i	0.94	-0.2	43	90
Cc1cc(C)c2c(n1)nn1c(N3CCN(c4ccccc4C)CC3)cc(C)nc21	nt	-11	nt	nt	-2.1	-37	112
CCOc1ccc(C2CC(c3ccc(F)cc3)n3ncnc3N2)cc1 (stereo not given)	108	-10	nt	nt	-0.6	-51	115
Cc1c(NC(=O)/C(C#N)=C/c2cccs2)c(=O)n(-c2ccccc2)n1C	30	-3	i	0.99	0.2	-45	115
CCOc1ccc(OCC)c(NC(=O)C(NS(=O)(=O)c2ccc3c(c2)oc(=O)n3C)C(C)C)c1 (stereo not given)	98	9	i	1	-0.4	nt	nt
Cc1c(Cl)cccc1NC(=O)c1cc(-c2ccccc2O)n[nH]1	139	-3	i	0.85	-0.7	11	131
Cc1nc(SCC(=O)NC(C)(C#N)C2CC2)c2c(-c3cccs3)csc2n1 (stereo not given)	101	-5	i	0.69	-0.7	-73	134
O=C(C1CCN(S(=O)(=O)c2cccc3nsnc23)CC1)N1CCc2ccccc21	101	0	i	1.1	-0.3	0	92
CCc1ccc(CN(C)CC(=O)Nc2ccc3c(c2)CCC3)cc1	96	-3	i	1	nt	nt	nt
Cc1nn(CCc2nn[nH]n2)c2nc(C(F)(F)F)cc(C(F)(F)F)c12	102	-1	i	1	0.4	nt	nt
COCCNc1ccnc2c(Cl)cccc12	77	-11	i	1.1	-1.4	50	118
O=[N+]([O-])c1ccc(-c2nc(NCC3CCCO3)c3ccccc3n2)cc1 (stereo not given)	100	nt	i	0.84	nt	nt	nt
COc1ccc2c(c1)-c1nc(/N=C/c3c(O)ccc4ccccc34)sc1CC2	115	-9	i	0.89	-0.6	69	70
C/C(=N\OCC(=O)Nc1c(C)cc(C)cc1C)c1ccc2c(c1)OCCO2	64	3	i	1.1	-0.9	53	49
N#Cc1ccc(-c2ccc(F)cc2)nc1Sc1ccccc1	102	9	i	0.72	-2.1	nt	nt
Cc1nc2cc(NC(=O)N3CCC(c4ccccc4)C3)ccc2n1C (stereo not given)	102	-11	i	0.9	-1.7	-62	109

5 compounds from above with just HSV augment primary fold and PKD1 kinase inh:
Compound | HSV augment primary fold | PKD1 kinase inh
Cc1c(Cl)cccc1NC(=O)c1cc(-c2ccccc2O)n[nH]1 | 0.85 | -3
COc1ccc2c(c1)-c1nc(/N=C/c3c(O)ccc4ccccc34)sc1CC2 | 0.89 | -9
Cc1ccc(NC(=S)Nc2ccc(Cl)c(Cl)c2)c(OC(F)F)c1 | 1 | -8
O=c1[nH]c2ccccc2nc1Cc1ccccc1 | 0.86 | 7
O=[N+]([O-])c1ccc(-c2nc(NCC3CCCO3)c3ccccc3n2)cc1 (stereo not given) | 0.84 | nt

(continued)
SMILES	RGS16-Gao	PKD1 kinase inh	HSV augment	HSV augment primary fold	GALR2 agonist	INS promoter inh	INS promoter inh cell count
COc1ccc(CCC(=O)NCc2ccco2)cc1	102	0	i	0.8	1.1	14	104
CCOc1ccc(/C=C/C(=O)Nc2ccc(C(N)=O)cc2)cc1OC	97	-4	i	1	-0.7	-4	157
O=S(=O)(c1ccc(Oc2ccccc2)cc1)N1CCOCC1	100	-3	i	0.91	-1.5	-42	55
c1ccc(-c2nn3nnnc3c3ccccc23)cc1	10	-7	i	0.82	-0.7	-174	44
COc1cccc(-c2nnc(-c3ccco3)o2)c1	119	6	i	0.92	0.5	-58	94
CCCCn1c(N)c(N(CCOC)C(=O)CN2c3ccccc3CC2C)c(=O)[nH]c1=O (stereo not given)	107	2	?	nt	nt	-60	63
COc1ccccc1-c1cc(C(=O)NC(C)c2ccccc2)no1 (stereo not given)	107	-7	i	0.95	-3.1	nt	nt
COc1ccc(S(=O)(=O)Nc2cc(C)c(O)cc2C(C)C)cc1	101	-3	i	1.1	-2.2	38	114
O=c1[nH]c(=O)n(Cc2ccco2)c2c1C(C(F)(F)F)(C(F)(F)F)N=C(Cc1ccccc1)N2	99	-2	i	1	0.4	-47	179
COc1ccnc(N=CNOCc2ccc(C)cc2)c1C#N	102	4	i	0.83	-1.7	42	48
CCCCOC(=O)c1ccc(NC(=O)COC(=O)CSc2nc(C)cc(C)n2)cc1	102	5	i	0.94	0.2	-24	124
O=C(COC(=O)C1(c2ccccc2F)CCCC1)N1CCOCC1	105	-4	i	0.85	-2.7	23	111
CCCCN(C)Cc1c(O)ccc2c(-c3ccccc3)cc(=O)oc12	105	-1	i	0.85	-0.8	10	120
O=C(COC(=O)c1cc(=O)[nH]c2ccccc12)NC1CCCC1	100	0	i	1.1	nt	nt	nt
C/C(CC(=O)Nc1cccc(Cl)c1Cl)=N\NC(=O)c1ccccc1Br	82	11	i	1	nt	nt	nt
CCOC(=O)c1sc(NC(=O)c2c(C)nn(Cc3ccccc3)c2C)cc1C	100	-10	i	0.86	0.3	18	109
COc1ccc(OC)c(Nc2cc(-c3ccccc3)nc(N)n2)c1	110	-3	i	0.46	-1.3	-200	6
O=C(Nc1ccc(Cl)c(C(F)(F)F)c1)C(=O)N1CCCCC1	46	-10	i	0.84	-1.3	nt	nt
COc1ccc2nc(C)cc(N3CCC(C(N)=O)CC3)c2c1	95	-6	i	1.1	nt	nt	nt
CN1C(=O)CC(P(=O)(c2ccccc2)c2ccccc2)N(C)C1=O (stereo not given)	107	-4	i	1.1	-3.5	29	88
COC(=O)C1=C(N)Oc2cc(C)n(CCc3ccccc3)c(=O)c2C1c1cccnc1 (stereo not given)	109	4	i	1	-0.2	nt	nt
CCOC(=O)C(NC(=O)c1cccc(Cl)c1)(OCc1ccccc1)C(F)(F)F (stereo not given)	94	0	i	1	-0.9	3	74
OCCNc1cc(-n2nc(-c3ccccc3)cc2-c2ccccc2)ncn1	99	-5	i	0.85	0.5	nt	nt
Cn1cccc1/C=N/NC(=O)CNc1cccc2ccccc12	109	nt	i	0.89	nt	nt	nt
CCN(Cc1cc2ccccc2[nH]c1=O)C(=O)C1CCCCC1	111	-7	i	1	-1.0	nt	nt

Whole records as entered above:
Results for `CCOc1ccc(C2CC(c3ccc(F)cc3)n3ncnc3N2)cc1` (stereo not given) → RGS16-Gao = 108; PKD1 kinase inh = -10; HSV augment = nt; HSV augment primary fold = nt; GALR2 agonist = -0.6; INS promoter inh = -51; INS promoter inh cell count = 115
Results for `CCCCn1c(N)c(N(CCOC)C(=O)CN2c3ccccc3CC2C)c(=O)[nH]c1=O` (stereo not given) → RGS16-Gao = 107; PKD1 kinase inh = 2; HSV augment = ?; HSV augment primary fold = nt; GALR2 agonist = nt; INS promoter inh = -60; INS promoter inh cell count = 63
Results for `c1ccc(-c2nn3nnnc3c3ccccc23)cc1` → RGS16-Gao = 10; PKD1 kinase inh = -7; HSV augment = i; HSV augment primary fold = 0.82; GALR2 agonist = -0.7; INS promoter inh = -174; INS promoter inh cell count = 44

(cont.)
SMILES	RGS16-Gao	PKD1 kinase inh	HSV augment	HSV augment primary fold	GALR2 agonist	INS promoter inh	INS promoter inh cell count
Nc1cc(=O)[nH]c(=O)n1Cc1ccccc1	110	-3	i	0.74	-0.1	25	102
CCOc1ccc(C(C)NC(=O)Nc2ccccc2C(=O)OC)cc1 (stereo not given)	100	1	i	0.91	-0.3	nt	nt
CCNS(=O)(=O)c1ccc(S(=O)(=O)N(Cc2ccccn2)C2CCCCC2)cc1	100	1	i	0.94	-1.4	-66	154
CCn1ncc(C2=NOC(C(=O)Nc3c(C)nn(Cc4ccc(F)cc4)c3C)C2)c1C (stereo not given)	108	-8	i	0.99	-1.3	nt	nt
Cc1cccc(N2CCN(c3nnc(C(F)(F)F)s3)CC2)c1	101	nt	i	1.1	nt	nt	nt
COc1cc(/C=N/NC(=O)Cn2ccc(C(F)(F)F)n2)cc(OC)c1OC	14*	-6	i	0.91	nt	-18	77
CCOc1cccc2cc(-c3nnc(NCc4ccc5c(c4)OCO5)s3)c(=O)oc12	nt	-6	i	0.99	-0.7	nt	nt
Cc1cccc(N2CCN(c3nc4nonc4nc3N3CCSCC3)CC2)n1	105	-1	i	0.98	nt	-46	76
Fc1ccccc1N1CCN(Cc2nc(-c3ccc(Cl)cc3Cl)no2)CC1	119	-1	i	1	-3.9	-347	70
CC(=O)c1c(C)[nH]c(C(=O)OCC(=O)Nc2cccc(S(=O)(=O)N(C)C)c2)c1C	100	4	i	1.1	nt	nt	nt
CCOc1cc(C(=O)Nc2c(C)ccc3nsnc23)cc(OCC)c1OCC	99	6	i	1	-1.5	-25	133
CC/C(Cc1ccccc1)=N\NC(=O)c1cc([N+](=O)[O-])cc([N+](=O)[O-])c1	116	1	i	1.1	nt	-140	67
Cc1ccccc1NC(=O)COC(=O)CCc1ccccc1	103	-3	i	0.92	nt	-50	115
O=C1C2CC=CCC2C(=O)N1c1ccc(N2CCN(c3ccccn3)CC2)c([N+](=O)[O-])c1 (stereo not given)	101	6	i	0.9	nt	43	141
CCCCn1c(SCC(=O)Nc2nnc(C)s2)nnc1-c1ccoc1C	104	-1	i	0.88	1.2	43	115
CC1=C(C(=O)N2CCOCC2)C(c2ccc(-c3ccccc3)cc2)NC(=S)N1 (stereo not given)	102	-6	i	0.97	nt	nt	nt
COc1ccc(CNc2ccc3c(c2)CCC3)cc1OC	151	1	i	0.85	-3.4	6	54
O=C(Cn1nc(C(F)(F)F)c2c1CCCC2)Nc1ccc2c(c1)OCO2	97	-4	i	0.92	-1.4	nt	nt
Cc1ccc(C(C)C)c(OCC(=O)Nn2c(=O)[nH]c3ccccc3c2=O)c1	118	-6	i	1.1	-0.6	21	58
Cc1ccc(-c2nn(C)c(=O)c3ccccc23)cc1S(=O)(=O)NCCN1CCOCC1	85	0	i	0.99	-1.5	26	85
CCn1c(=N)c(C(N)=O)cc2c(=O)n3cccc(C)c3nc21	nt	-1	nt	nt	2.5	-23	122
Cc1ccc(N2C(=O)[C@@H]3[C@H](C2=O)C2c4ccccc4C=NN2[C@@H]3C(=O)c2ccc(Cl)cc2)cc1 (stereo not given in full)	103	3	i	1.1	-0.4	-6	100
COCCNC(=O)c1ccccc1NC(=O)c1ccccc1N(C)S(=O)(=O)c1ccc(C)cc1	107	6	i	0.88	0.6	-50	109
C=CCC1(N(C(C)=O)c2ccccc2)CCCCC1	105	-9	i	0.95	nt	nt	nt
O=C(C1CCCN(S(=O)(=O)c2cccs2)C1)N1CCc2ccccc2C1 (stereo not given)	103	-8	i	0.95	-0.1	-37	177
COc1ccc(N/C(C)=C/C(=O)c2ccccc2)cc1	109	-6	i	0.88	-0.9	-67	123
CCOc1ccc(C2=NNC(c3cccs3)=Nc3ccc(OC)cc32)cc1	103	2	i	0.94	-1.8	8	91
CC(C)OCCCNS(=O)(=O)c1ccc2c(c1)oc(=O)n2C	72	2	i	1	-3.2	nt	nt

Among those listed so far, 6 contain an aryl thioether with sulfur outside any ring.
SMILES	RGS16-Gao	PKD1 kinase inh	HSV augment	HSV augment primary fold	GALR2 agonist	INS promoter inh	INS promoter inh cell count
CCN(CC)C(=O)CSc1nnc(C2CCCCC2)o1	97	-2	i	0.99	-2.1	-40	79
Cc1ccc(/C=C/C(=O)OCC(=O)Nc2ccccc2Sc2ccccc2)cc1	108	-7	i	0.98	-1.7	10	70
Cc1nc(SCC(=O)NC(C)(C#N)C2CC2)c2c(-c3cccs3)csc2n1 (stereo not given)	101	-5	i	0.69	-0.7	-73	134
N#Cc1ccc(-c2ccc(F)cc2)nc1Sc1ccccc1	102	9	i	0.72	-2.1	nt	nt
CCCCOC(=O)c1ccc(NC(=O)COC(=O)CSc2nc(C)cc(C)n2)cc1	102	5	i	0.94	0.2	-24	124
CCCCn1c(SCC(=O)Nc2nnc(C)s2)nnc1-c1ccoc1C	104	-1	i	0.88	1.2	43	115
